From PubChem BioAssay
TRPML1 inh: human mucolipin-1 channel inhibition; Q9GZU1; TRPML1-inducible cells, Ca2+ dye fluorescence, FDSS; active compounds read low; inhibition of EC80 agonist-evoked calcium signal; activity change, negative = inhibition, % (test concentration not listed); 390,000 compounds, 0.02% hits; AID 624415; in the data active means activity change below about -50%; inconclusive means about -30% to -50%; inactive means above about -30%;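 further: stimulus is agonist 54-4 at its EC80 concentration; on the % scale 0 is the no-effect control and ±100 the full control effect; compound concentration not given in the record; the text of the record puts the active cut at -80%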
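Tet-induced TRPML1-DL cells loaded with Ca8 no-wash calcium dye were read kinetically on FDSS. Compound addition was followed by EC80 agonist 54-4 (4 uM final); inhibition was read over 110 s.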
D2 agonist: human D2 receptor agonism in beta-arrestin assay; DiscoveRx PathHunter D2 beta-arrestin, luminescence, 90 min; 100% = 57 uM dopamine signal; activation, % (concentration not given with the values); 360,000 compounds, 0.084% hits; AID 624465; in the data active = activation above about 40%; inconclusive = about 15% to 40%; inactive = below about 15%; further: the text of the record calls up to 30% inactive
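Agonist mode: compounds alone added to overnight-plated D2 PathHunter cells for 90 min at 37 C, with 57 uM final dopamine (EC100) defining full response. Beta-arrestin recruitment detected by chemiluminescent reagent, read after 1 h at ambient temperature.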
D2 PAM: potentiates the human D2 dopamine receptor allosterically; potentiation, % (no concentration beside the values); P14416; DiscoveRx D2 beta-arrestin cells, luminescence, 90 min; 100% = 57 uM dopamine signal; 360,000 compounds, 0.23% hits; active = potentiation of 50% or more; inconclusive = 30% to 50%; inactive = 30% or less;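 further: compound concentration not given in the record; tested on top of an EC20 dose of dopamine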
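PathHunter beta-arrestin assay in DiscoveRx D2 cells. Compounds were added with an EC20 of dopamine (50 nM final) for 90 min at 37 deg C. Luminescence was read 1 h after detection reagent, with 57 uM dopamine as the EC100 control.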
Six1-Eya2 inh: Six1/Eya2 interaction inhibition; 360,000 compounds, 0.56% hits; AlphaScreen GST-Six1/His-Eya2 binding, biochemical; active compounds read low; control for the full effect not named in the record; activity change, % (no concentration beside the values); Q15475+O00167; in the data active = activity change below about -65%; inconclusive = about -30% to -65%; inactive = above about -30%; further: on the % scale 0 is the no-effect control and ±100 the full control effect
Target sequence (O00167 whole entry, looked up): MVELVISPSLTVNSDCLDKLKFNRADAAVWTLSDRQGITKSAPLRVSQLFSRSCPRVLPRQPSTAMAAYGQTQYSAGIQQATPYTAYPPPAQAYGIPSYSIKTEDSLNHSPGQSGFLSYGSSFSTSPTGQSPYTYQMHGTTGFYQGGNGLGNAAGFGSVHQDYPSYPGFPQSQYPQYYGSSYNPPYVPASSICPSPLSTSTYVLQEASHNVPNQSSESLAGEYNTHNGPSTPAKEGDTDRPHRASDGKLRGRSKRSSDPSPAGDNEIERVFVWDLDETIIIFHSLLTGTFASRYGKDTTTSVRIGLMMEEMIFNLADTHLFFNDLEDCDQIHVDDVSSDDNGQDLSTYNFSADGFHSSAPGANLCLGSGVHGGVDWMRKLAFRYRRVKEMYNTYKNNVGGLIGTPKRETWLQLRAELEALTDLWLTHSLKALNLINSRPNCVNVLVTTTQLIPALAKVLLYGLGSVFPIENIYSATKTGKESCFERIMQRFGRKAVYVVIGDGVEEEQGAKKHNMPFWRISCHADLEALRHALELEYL
Target sequence (Q15475 whole entry, looked up): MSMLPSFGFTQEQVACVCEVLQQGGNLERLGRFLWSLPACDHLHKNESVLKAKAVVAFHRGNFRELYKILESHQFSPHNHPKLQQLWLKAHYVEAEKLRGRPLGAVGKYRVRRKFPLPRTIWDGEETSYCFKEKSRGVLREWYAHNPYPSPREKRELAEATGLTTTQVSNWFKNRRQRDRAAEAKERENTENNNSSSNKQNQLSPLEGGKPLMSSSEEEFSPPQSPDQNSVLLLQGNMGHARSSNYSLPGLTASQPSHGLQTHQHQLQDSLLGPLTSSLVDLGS
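Homogeneous AlphaScreen proximity assay pairing GST-Six1 with His-tagged Eya2 (added as 5X mix: 250 nM and 500 nM) in 50 mM Tris pH 8.0, 300 mM NaCl, 1 mM TCEP. Glutathione donor and nickel acceptor beads; 1 h, 37 °C, dark.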
PINK1 modulator: changes PINK1 expression; PINK1 immunofluorescence, high-content cytometry, 24 h; AID 624263; 410,000 compounds, 0.2% hits; Potency, µM (series often up to 76.6 µM), without a hit: at the highest dose activation (PINK1 increase), usual class: activators; active = well fitted activation curve with a large enough effect; inconclusive = small, poorly fitted or top-dose-only effect; inactive = flat fitted curve, though single readings scatter; cell line not stated here;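 further: potency means the concentration at half of the fitted maximal effect; % of control where 0% means no effect; nearly all actives have a fitted effect of over 65% in size; a mitochondrial uncoupler was the plate control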
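Compound titrations (5 concentrations, 24 h) on a stable cell line; DMSO and CCCP controls. Endpoint: fixed-cell PINK1 immunofluorescence with mitochondrial, cell and nuclear markers, scanned by microplate cytometer.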
TRPML1 agonist: human mucolipin-1 channel agonism; 410,000 compounds, 0.12% hits; activation, % (no concentration beside the values); Q9GZU1; TRPML1-expressing cells, Ca2+ dye fluorescence, FDSS; host cell line not named in the record; reference of the full effect not given here; in the data active = activation above about 50%; inconclusive = about 30% to 50%; inactive = below about 30%; further: 0% is about no effect; the text of the record puts the active cut at 80%
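In this qHTS format, compounds were pin-transferred onto Ca8-dye-loaded TRPML1-DL cells induced with Tet overnight, and intracellular Ca2+ fluorescence was recorded kinetically for 110 s after a 10 s baseline. A subsequent 4uM final 54-4 (EC80) addition followed by a second 110 s read served as the antagonist phase.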
Active calls of the source: *; u = inconclusive; x = not tested or not shown; & = joins results of further samples; [ ] = remark or other dose.

SMILES	TRPML1 inh	D2 agonist	D2 PAM	Six1-Eya2 inh	PINK1 modulator	TRPML1 agonist
CC(=O)N/C(=C\c1ccccc1)C(=O)OCC(=O)N(C)C1CCS(=O)(=O)C1 (configuration not stated)	2	-0.3	10	9	-2.8%	0.2
CC(C(=O)Nc1ccccc1Cl)c1ccc([N+](=O)[O-])cc1 (configuration not stated)	-14	-3.9	-3	-1	3.2%	0.1
Cc1ccc(C(=O)N(Cc2cccs2)C2CCS(=O)(=O)C2)cc1 (configuration not stated)	-4	-4.1	-4	14	0.5%	0.1
Cc1cccc(C2=NNC(=O)C(c3ccc(Cl)cc3)C2)c1 (configuration not stated)	29	0.9	-6	-3	1.5%	3.0
Cc1ccc(S(=O)(=O)Nc2cccc3cccnc23)c([N+](=O)[O-])c1	28	-6.9	-14	-91*	4.7%	1.6
CCc1ccc(S(=O)(=O)NCC2(N3CCOCC3)CCCCC2)cc1	-7	-1.1	0	1	-0.3%	u
CNc1nc(-c2cccc(C(=O)N(C)C)c2)cn2ccnc12	7	-7.7	-10	u	3.3%	-0.2
CCCCCC(=O)Nc1cccc(C2=NOC3(C2)C[C@H](C(N)=O)N(C(=O)c2ccccc2C(=O)c2ccccc2)C3)c1 (some centres not stated)	22	2.0	-6	-5	0.0%	0.7
COc1ccccc1N(C)S(=O)(=O)c1ccc(Cl)c(C(=O)NCCCN2CCOCC2)c1	-1	-9.5	-12	4	-0.3%	-0.3
Cn1nc(C(F)(F)F)c2cc(C(=O)O)sc21	5	-1.0	-2	13	0.8%	-0.7
Cc1nn(Cc2ccc(C(=O)NN)o2)c(C)c1Cl	2	-3.9	-20	-7	1.6%	-0.7
CCc1cccc(CC)c1NC(=O)C1CN(S(=O)(=O)c2ccccc2)CCN1S(=O)(=O)c1ccccc1 (configuration not stated)	-11	0.9	-1	3	-0.2%	1.1
O=C(NNC(=S)Nc1ccc(Cl)cc1)c1ccccc1OC(F)F	2	-11	-38	-5	u	-1.0
COc1cccc(/C=N/NC(=O)CN2CC(c3ccccc3)CC2=O)c1OC (configuration not stated)	-2	-5.9	-15	0	-1.6%	-0.5
Cc1ccc(N2CC(C(=O)Nc3ccc(Br)cc3)CC2=O)cc1 (configuration not stated)	1	x	x	x	1.5%	-0.2
COc1ccc(C(=O)N/C(=C\c2cc(OC)c(OC)cc2[N+](=O)[O-])C(=O)NCCO)cc1	-4	-0.1	2	1	-1.1%	-0.5
Cc1ccc(C(NC(=O)c2ccccc2)C(Cl)(Cl)Cl)cc1 (configuration not stated)	16	-1.7	2	12	u	4.9
CN(CC1COc2ccccc2O1)C(=S)NC1CCCCC1 (configuration not stated)	x	1.4	-5	15	1.7%	x
CCOc1ccccc1NC(=O)C(OC(=O)c1ccc(N(C)C)cc1)c1ccccc1 (configuration not stated)	-1	-7.5	-4	-6	6.2%	-0.1
COc1ccc(N/C(C)=C/C(=O)c2ccccc2)cc1	14	-1.2	-5	-4	1.3%	1.2
COc1cccc(C(c2c(O)nc(SC)n(C)c2=O)c2c(O)nc(SC)n(C)c2=O)c1	6	-3.2	-2	-2	1.2%	0.1
Cc1ccccc1CNC(=O)c1cccc(NC(=O)N2CCSc3ncccc32)c1	-25	x	x	x	-0.8%	1.8
O=C(c1cc2cc(Br)ccc2o1)N1CCCCC1	-6	4.4	-5	5	1.0%	-0.3
Fc1cccc(Cl)c1Cn1nnc2c(-n3ccnc3)ncnc21	13	-3.4	-16	5	-2.1%	2.9
COC(=O)c1cc(C(=O)OCC(=O)Nc2ccccc2OC(F)F)cc([N+](=O)[O-])c1	6	-0.3	9	-19	-0.3%	-0.7
O=C(O)c1ncc(-c2ccccc2)cn1	-13	-2.2	-6	-19	3.9%[38.3 µM]	0.6
Cc1cc(C)cc(NS(=O)(=O)c2ccc(NC(=O)c3ccccc3C(=O)O)cc2)c1	-9	-0.5	-6	2	-0.4%	1.3
Cc1cccc(OCCNC(=O)c2cc(-n3cnnc3)ccc2Cl)c1	-11	1.4	3	17	-1.7%[38.3 µM]	0.9
CCCNC(=O)c1onc(CSc2ccc(F)cc2)c1C(=O)NCCC	22	-0.1	-14	9	-1.1%	0.4
Cc1noc(C)c1COC(=O)[C@@H](NC(=O)c1ccccc1)C(C)C	41	-1.7	-5	19	0.3%	1.2
CN(CC(=O)Nc1ccc(Cl)c(C(F)(F)F)c1)C(=O)c1cc(-c2ccncc2)nc2ccccc12	-15	-3.0	-15	-3	-1.3%	-0.7
O=C(CCNC(=O)c1ccc(Cl)cc1)Nc1ccccc1Cl	-10	1.3	-7	7	-2.0%	2.2
CCC(CC)c1nnc(NC(=O)C2=COCCO2)s1	10	2.6	1	1	1.0%	-0.5
CCc1ccccc1N(C(=O)Cn1nnc2ccccc21)C(C(=O)NCCOC)c1ccco1 (configuration not stated)	-2	-4.5	-15	2	0.4%	-0.6
O=C(NCCc1ccc(Cl)cc1)c1ccc2c(c1)N(Cc1ccccc1)CCS2	-4	x	x	x	-1.0%	1.5
CCC1CSC(Nc2ccc(C(=O)/C=C/c3ccc(OC)c(OC)c3)cc2)=N1 (configuration not stated)	2	-1.4	-10	-28	0.2%	1.8
O=C(Cn1ccccc1=O)Nc1ccc(Cl)c(S(=O)(=O)N2CCCCC2)c1	32	-1.2	-10	11	-0.3%	-0.5
COc1ccc(S(=O)(=O)N2CCC3(CC2)OCCN3S(=O)(=O)c2c(C)cc(C)cc2C)cc1	7	-4.0	-45	-3	2.4%	0.9
O=C(Nc1cccc(O)c1)c1ccccc1	1	-1.2	1	-1	2.9%[38.3 µM]	0.5
C=C(C)c1ccccc1NC(=O)CCN1C(=O)c2ccccc2S1(=O)=O	-14	-2.3	0	13	1.4%	2.4
Cc1[nH]c(=O)[nH]c(=O)c1S(=O)(=O)N1CCCC(C(=O)NCCC2=CCCCC2)C1 (configuration not stated)	32	6.3	1	-2	0.7%	2.1
CCC[C@@H]1CCCO[C@@](C(=O)NCc2ccc(S(C)(=O)=O)cc2)(C(F)(F)F)C1	-10&9	-1.1	-18	-11	0.6%	-0.1&0.3
O=[N+]([O-])c1cc(C(F)(F)F)ccc1NCCc1ccccn1	1	-2.5	-19	-14	-0.5%	0.3
Cc1nn(CC(=O)NCc2ccccc2Cl)c(C)c1[N+](=O)[O-]	-15	-0.8	10	6	x	-0.1
Cc1cccc(-n2c(SCC(N)=O)nc3c(c2=O)C2(CCCC2)Cc2ccccc2-3)c1	10	-2.0	-3	u	1.2%	-1.5
COc1ccc(/C=C/C(=O)Nc2cc(C(F)(F)F)ccc2Cl)cc1OC	0	1.2	-29	6	-1.1%	1.2
COc1ccc(CCNC(=O)c2ccccc2NS(=O)(=O)c2cc(C(=O)O)ccc2OC)cc1	17	-1.3	4	5	0.1%	0.4
O=C1CC(=O)Nc2ccccc2N1	14	-2.6	-11	-1	1.1%	1.2

Random excerpt: two records from the list, in no set order.
SMILES	TRPML1 inh	D2 agonist	D2 PAM	Six1-Eya2 inh	PINK1 modulator	TRPML1 agonist
Cc1nn(CC(=O)NCc2ccccc2Cl)c(C)c1[N+](=O)[O-]	-15	-0.8	10	6	x	-0.1
CCC[C@@H]1CCCO[C@@](C(=O)NCc2ccc(S(C)(=O)=O)cc2)(C(F)(F)F)C1	-10&9	-1.1	-18	-11	0.6%	-0.1&0.3

New compounds follow:
SMILES	TRPML1 inh	D2 agonist	D2 PAM	Six1-Eya2 inh	PINK1 modulator	TRPML1 agonist
C/C(=C(\C#N)C(=O)NC1CCCCC1)N(C)C	14	-2.1	0	12	1.3%	0.5
COc1cccc(COC(=O)c2cc(=O)[nH]c3ccc(S(=O)(=O)N4CCOCC4)cc23)c1OC	-1	-2.1	-9	-12	2.4%	-0.1
CCOC(=O)N1CCC(=C2c3ccc(Cl)cc3CCc3cccnc32)CC1	-2	14	12	-3	0.1%&5.9%	2.3
COc1cc2c(cc1NC(=O)COCC(=O)O)oc1ccccc12	-2	-1.0	3	-7	1.2%	0.0
Cc1cccn2c(=O)cc(COc3ccc(NC(=O)COc4ccc(F)cc4)cc3)nc12	-2	x	x	x	5.1%	0.3
CCN(CC)CCCN(Cc1cc2cc3c(cc2[nH]c1=O)OCCO3)C(=O)Nc1ccc(F)cc1	1	-5.5	-6	0	1.8%	-0.5
COc1ccc(C(=O)NCc2nnc(SCC(=O)Nc3cc(OC)ccc3OC)o2)cc1	-8	9.0	-13	6	-2.3%	0.7
Cc1c(NC(=O)C(C)OC(=O)c2cc(-c3cccc4ccccc34)nc3ccccc23)c(=O)n(-c2ccccc2)n1C (configuration not stated)	5	0.0	-6	-3	3.9%	1.5

Given with each value named: part of the list above.
COc1cc2c(cc1NC(=O)COCC(=O)O)oc1ccccc12
  TRPML1 inh: -2 | D2 agonist: -1.0 | D2 PAM: 3 | Six1-Eya2 inh: -7 | PINK1 modulator: 1.2% | TRPML1 agonist: 0.0

Cc1cccn2c(=O)cc(COc3ccc(NC(=O)COc4ccc(F)cc4)cc3)nc12
  TRPML1 inh: -2 | D2 agonist: x | D2 PAM: x | Six1-Eya2 inh: x | PINK1 modulator: 5.1% | TRPML1 agonist: 0.3

CCN(CC)CCCN(Cc1cc2cc3c(cc2[nH]c1=O)OCCO3)C(=O)Nc1ccc(F)cc1
  TRPML1 inh: 1 | D2 agonist: -5.5 | D2 PAM: -6 | Six1-Eya2 inh: 0 | PINK1 modulator: 1.8% | TRPML1 agonist: -0.5

COc1ccc(C(=O)NCc2nnc(SCC(=O)Nc3cc(OC)ccc3OC)o2)cc1
  TRPML1 inh: -8 | D2 agonist: 9.0 | D2 PAM: -13 | Six1-Eya2 inh: 6 | PINK1 modulator: -2.3% | TRPML1 agonist: 0.7

(listing goes on)
SMILES	TRPML1 inh	D2 agonist	D2 PAM	Six1-Eya2 inh	PINK1 modulator	TRPML1 agonist
CCCCNc1nc(Oc2ccc(OCCC)nn2)nc(N(C)C)n1	4	x	x	x	3.7%	2.3
CC(OC(=O)c1cc(=O)[nH]c2ccccc12)C(=O)N1C(C)CCCC1C (configuration not stated)	-7	5.6	-8	-1	-1.0%	0.7
CCOC(=O)C1CCN(c2c(NCc3ccc(C(=O)NCCC(C)C)cc3)c(=O)c2=O)CC1	0	-2.3	-1	0	-0.3%	0.1
COc1cccc(C2C3=C(CCCC3=O)Nc3[nH]n(-c4ccccc4)c(=O)c32)c1 (configuration not stated)	-26	-0.5	-3	-6	-1.3%	1.8
CN(CC(=O)Nc1ccc(N2CCOCC2)cc1)C(=O)c1cccc(Cl)c1Cl	-8	-6.0	-37	-3	0.2%	-0.3
CCOC(=O)CC(NC(C)=O)c1ccc([N+](=O)[O-])cc1 (configuration not stated)	-4	0.5	-16	4	0.1%	0.1
Cc1ccc(NNC(=O)c2cccs2)cc1Cl	-18	-13	-23	2	0.4%	0.5
O=S(=O)(NCC(c1cccnc1)N1CCN(Cc2ccccc2)CC1)c1cc(F)ccc1F (configuration not stated)	-9	11	-5	0	1.3%	1.6
NNC(=O)c1cccc(Cn2cc(Br)c([N+](=O)[O-])n2)c1	-8	-0.4	-3	-5	1.2%	4.2
